UCH37 inh – inhibitors of human UCH37 deubiquitinase, primary screen, biochemical, Ub-AMC cleavage, fluorescence; purified proteasome/UCH37; inhibition, % (test concentration not listed); 0.33% of 330,000 active;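 active means mean of two replicates above 20%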;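 further: 0% = compound-free wells with enzyme and 100% = wells lacking proteasome; stock transfer was 100 nL into about 20 µL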
Target sequence (Q9Y5K5 whole entry, looked up): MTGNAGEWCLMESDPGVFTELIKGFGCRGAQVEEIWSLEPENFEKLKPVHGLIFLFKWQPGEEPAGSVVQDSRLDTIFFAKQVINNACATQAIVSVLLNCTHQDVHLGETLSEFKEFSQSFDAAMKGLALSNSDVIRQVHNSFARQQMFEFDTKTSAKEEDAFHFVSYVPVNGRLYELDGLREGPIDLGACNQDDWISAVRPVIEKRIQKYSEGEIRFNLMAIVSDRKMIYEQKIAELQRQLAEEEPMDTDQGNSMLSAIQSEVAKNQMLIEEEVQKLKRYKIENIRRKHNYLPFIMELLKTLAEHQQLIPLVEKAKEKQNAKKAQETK
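Reagent: Ub-AMC substrate; assay system: Proteasome-associated human UCH37 deubiquitinase; controls: no-proteasome and no-compound wells; read-out: % inhibition of Ub-AMC cleavage fluorescence; timing: 30 min preincubation with enzyme, 25 min cleavage at room temperature; signal: AMC fluorescence from Ub-AMC cleavage, excitation 355 nm, emission 460 nm; buffer or medium: Tris-HCl pH 7.4 plus ovalbumin, ATP-MgCl2, DTT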
ALR inh – inhibitors of human ALR sulfhydryl oxidase, primary screen, biochemical, H2O2 detection, HRP-luminol luminescence, single point. 3.8% of 290,000 active. FAD-linked sulfhydryl oxidase ALR (Homo sapiens), P55789. inhibition, % (concentration not given with the values). purified ALR, DTT oxidation;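 active means mean and each replicate at 75% or more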;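 further: stock transfer was 7.5 nL into about 7.5 µL; 0% = neutral wells and 100% = wells with inactivated enzyme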
Target sequence (P55789 whole entry, looked up): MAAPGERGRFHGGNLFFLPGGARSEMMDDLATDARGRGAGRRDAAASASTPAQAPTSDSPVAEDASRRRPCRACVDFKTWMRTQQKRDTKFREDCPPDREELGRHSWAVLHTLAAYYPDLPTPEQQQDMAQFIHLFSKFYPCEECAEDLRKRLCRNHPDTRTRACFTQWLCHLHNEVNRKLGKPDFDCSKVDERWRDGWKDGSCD
HNF4A DNA FP – change in binding of human HNF4A to DNA, primary screen, biochemical, fluorescence polarization, FITC-DNA; Hepatocyte nuclear factor 4-alpha (Homo sapiens), P41235; 1 h; activity change, % at 10 µM; 0.3% of 360,000 active; AID 1224865, 2016; in the data active means activity change above about 30%, passing the limit was not always enough;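 further: controls were the assay level and a saturating level of protein; the project sought stronger binding though the title names inhibitors; some compounds called inactive have numbers as strong as hits; positive values seem to mean higher polarization but the record does not say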
FGF22 binding – binders of human FGF22 protein, primary screen, FGF22 synaptogenesis inhibitor project, biophysical, thermal shift, single point; AID 651658, 2012; recombinant FGF22 thermal shift, SYPRO orange fluorescence; percent of sucrose octasulfate shift, DMSO zero; Fibroblast growth factor 22 (Homo sapiens), Q9HCT0; calls only at 9.99 µM; 1.5% of 340,000 active;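 active means melting point raised past a set limit in the mean and every replicate; three in four hits are not shown here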
LANA-H2B inh – blockers of LANA interaction with H2A/H2B – biochemical, FP readout, HTS, primary screen. 0.6% of 320,000 active. AID 2629, 2010. inhibition, % (concentration not given with the values). cell-free LANA-H2A/H2B peptide, fluorescence polarization. Protein LANA1 (Human herpesvirus 8 type P (isolate GK18)), Q9QR71; in the data active means inhibition mostly above about 10%, no sharp cut-off; inactive means mostly below about 6.7%;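 further: stock transfer was 7.5 nL into about 10 µL; 0% = median of vehicle wells and 100% = median of positive control wells; one replicate is shown; the record names a cut of 25% in any replicate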
B2AR ag – beta2AR agonists driving receptor internalization, primary screen, cell-based, FAP fluorogen, flow cytometry; Beta-2 adrenergic receptor (Homo sapiens), P07550; Am2.2-beta2AR cells; reference of the scale not given here; response, % (no concentration beside the values); 0.43% of 340,000 active; AID 504454, 2011;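 active means response above a set limit, near 3 SD of response in nonfluorescent compounds, cut at about 42% in these data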;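 further: stock transfer was 100 nL into about 11 µL; a reference agonist was the positive control; negative values mostly stem from fluorescent compounds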
Target sequence (P07550 whole entry, looked up): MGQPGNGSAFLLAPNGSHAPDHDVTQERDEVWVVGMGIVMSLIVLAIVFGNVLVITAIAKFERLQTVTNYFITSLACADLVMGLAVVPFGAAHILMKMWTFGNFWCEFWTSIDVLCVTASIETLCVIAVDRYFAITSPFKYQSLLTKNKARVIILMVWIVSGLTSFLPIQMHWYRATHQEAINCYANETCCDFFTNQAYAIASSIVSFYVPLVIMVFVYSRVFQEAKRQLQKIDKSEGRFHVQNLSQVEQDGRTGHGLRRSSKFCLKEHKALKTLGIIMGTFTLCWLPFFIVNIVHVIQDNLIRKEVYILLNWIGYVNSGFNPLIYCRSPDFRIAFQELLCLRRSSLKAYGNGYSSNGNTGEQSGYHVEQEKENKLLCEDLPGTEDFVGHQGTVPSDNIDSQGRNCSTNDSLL
E coli growth – E. coli growth inhibition, primary screen, OD600; Escherichia coli growth, 23 h; hits give low values; OD600 absorbance (no concentration beside the values); 0.21% of 330,000 active; AID 1053175, 2014;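 active means OD600 absorbance below the run mean of sample wells minus 3.6 SD, in any replicate, cut at about 0.56 in these data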;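 further: stock transfer was 300 nL into about 60 µL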
Starred values were filed as active, the others as inactive; i = inactive; . = no result given. The list is partial. The share of hits here may be higher or lower than overall.

SMILES	UCH37 inh	ALR inh	HNF4A DNA FP	FGF22 binding	LANA-H2B inh	B2AR ag	E coli growth
CCCc1cc(=O)oc2cc(OCC(=O)NCCCN3CCCC3=O)ccc12	-33	-2	3.5	i	-1.1	-1	0.67
COc1ccc(CCC(=O)NNC(=S)Nc2cccc(C(C)=O)c2)cc1	0.8	-1	0.3	i	-2.7	3	0.67
CC(=O)NC(CC(=O)NNC(=O)c1cc2ccccc2cc1O)c1ccccc1 (stereo unspecified)	-3.0	4	-0.2	i	5.2	3	0.74
Cc1ccc(CN(C(=O)c2ccccc2C)C2CCS(=O)(=O)C2)o1 (stereo unspecified)	1.0	0	-5.1	i	3.7	5	0.68
CC(C)(C)OC(=O)N1CCC[C@H]1C(=O)N/N=C/c1cccc2nccnc12	.	15	-1.1	i	-2.4	-4	.
CCOCCCn1c(=O)c(NC(=O)c2ccc(OCC)cc2)c2n(c1=S)CCCCC2	1.8	-5	-2.4	.	-3.8	1	0.67
O=C(C1CCN(S(=O)(=O)c2cccs2)CC1)N1CCCC(C(F)(F)F)C1 (stereo unspecified)	-1.1	0	-3.1	i	-0.5	0	0.63
COc1ccc(NC(=O)C2C3C=CC4(O3)C2C(=O)N(CCN2CCCCC2)C4C(=O)NC2CCCCC2)cc1 (stereo unspecified)	5.1	-18	1.5	i	-0.8	1	0.68
CN(C)c1ccc(C(C(=O)NCC2CCCO2)N(C(=O)c2snc(C(N)=O)c2N)c2ccccc2)cc1 (stereo unspecified)	.	.	-3.9	.	1.7	-3	.
CC(C)(C)OC(=O)N/N=C/c1ccc(N2CCOCC2)s1	.	83*	42*	i	-3.8	2	.
CCOC(=O)c1c(C)nc2sc3c(=O)n(-c4ccc(OC)cc4)cnc3c2c1-c1ccc(OC)cc1	-3.9	2	1.9	.	4.3	2	0.7
CCOC(CNC(=O)CN1C(=O)COc2ccc(S(=O)(=O)N3CC(C)CC(C)C3)cc21)OCC (stereo unspecified)	1.0	-4	2.0	i	0.4	1	0.76
Cc1cc(C)c(NC(=O)C2CC(=O)N(c3ccc4c(c3)OCCO4)C2)c(C)c1 (stereo unspecified)	1.4	-1	2.0	.	-4.1	-3	0.61
CN(C)C(CNC(=O)c1ccc(Br)cc1)c1ccco1 (stereo unspecified)	-0.6	1	35	i	1.6	-4	0.69
CCOc1ccccc1N1C(=O)CC(N(O)c2ccccc2)C1=O (stereo unspecified)	7.2	95*	1.2	i	0.1	2	0.75
COc1cc(Cl)c(S(=O)(=O)NCc2cccnc2)cc1Cl	5.7	-15	-1.4	i	0.3	-1	0.67
CCN(CC)C(=O)CN(c1cc(Cl)ccc1OC)S(=O)(=O)c1ccc(C)c([N+](=O)[O-])c1	5.0	-5	1.9	.	-4.6	-12	0.69
Cc1ccsc1-c1ccnc(-n2cccc2)n1	-4.2	6	0.1	.	-4.0	-2	0.67
O=C(CCN1C(=O)/C(=C/c2ccccc2Cl)SC1=S)Nc1ccccn1	5.8	-26	2.4	i	-0.3	-2	0.73
CCOc1cc(C(=O)NCC(=O)N2CCC3(CC2)NCCc2[nH]cnc23)cc(OCC)c1OCC	1.2	-3	-1.6	i	-2.6	7	0.68
COc1ccc(C2=NN(C(=O)CSc3nc4ncc(Cl)cc4[nH]3)C(c3ccco3)C2)cc1 (stereo unspecified)	1.4	48	3.2	i	-5.0	-1	0.71
C=C1CCC[C@]2(C)C[C@H]3OC(=O)C(CN4CCCCC4CO)[C@H]3CC12 (stereo partly specified)	11	28	-4.7	i	-2.3	2	0.66
CCOC(=O)c1[nH]c(C)c(C(=O)Nc2ccc(Cl)cc2)c1C	-1.8	1	-1.8	i	1.6	-3	0.68
O=C(O)CCc1nn2c3ccccc3nc2n(CCN2CCCCC2)c1=O	-26	-5	3.5	.	-0.7	3	0.7
COc1ccc(-c2c(C)n([O-])c(C)c(-c3ccccc3)[n+]2=O)cc1OC	3.3	-2	2.7	.	-0.6	8	0.64
Cc1cc(NC(=O)c2noc3c2CCc2ccccc2-3)n(-c2ccccc2)n1	-1.2	-13	2.9	i	-8.5	3	0.76
O=C(COc1ccc(Cl)cc1Cl)NCCC1=CCCCC1	0.6	-19	1.1	.	-22	-9	0.7
COc1ccc(Nc2cc(C(=O)NCCCN3CCOCC3)c3ccccc3n2)cc1OC	2.2	58	3.2	.	0.9	-9	0.73
CC1(NC(=O)CCc2nc3ccccc3c(=O)[nH]2)CCS(=O)(=O)C1 (stereo unspecified)	-1.2	8	1.6	i	-6.3	2	0.67
CCOC(=O)c1ccc(NC(=S)N(CCCN2CCCC2)Cc2ccco2)cc1	4.2	-1	-2.2	i	-0.2	-4	0.67
COc1ccccc1CN1CC(C(=O)N(Cc2cnn(C)c2)C(C)C)CCC1=O (stereo unspecified)	-0.4	-1	-1.1	i	0.8	-5	0.7
CC(=O)Nc1cccc(NC(=O)COC(=O)CO/N=C(\C)c2ccc3c(c2)OCO3)c1	.	-3	5.2	i	2.4	1	.
FC(F)(F)c1cccc(Cn2nnnc2-c2ccc(Cl)cc2)c1	5.2	-31	4.0	.	4.0	9	0.69
COc1ccc(C(=O)O/N=C(\N)c2ccccc2)cc1	.	-4	-4.5	i	4.1	4	.
O=C(Nc1sc2c(c1-c1nc3ccccc3[nH]1)CCCC2)C1CC1	-49	-14	0.4	.	-2.7	5	0.74
CCN(C(=O)CSc1nc2cc(C(=O)O)ccc2c(=O)n1-c1ccccc1F)C1CCS(=O)(=O)C1 (stereo unspecified)	-0.5	.	-2.3	i	.	-5	0.67
CCOC(=O)c1ccc(NC(=O)C(C)Sc2nc(O)c(-c3ccccc3)c(=O)[nH]2)cc1 (stereo unspecified)	8.0	99*	-3.0	i	-2.0	-6	0.64
CCOc1ccc(NC(=O)[C@@H](NC(=O)c2ccco2)C(C)C)cc1	4.3	63	3.3	i	5.1	-2	0.68
COCCC1CCCCN1C(=O)c1cc(COc2cccc(C(C)=O)c2)on1 (stereo unspecified)	1.0	-5	0.4	i	4.4	-7	0.68
CC(=O)N1[C@H](C)C=C[C@]1(Cc1ccccc1)C(=O)NCCc1c[nH]c2ccccc12	2.5	.	4.9	.	2.9	15	.
CC1CCN(C(=O)c2cc(S(=O)(=O)N3CCOCC3)ccc2N2CCCC2)CC1	2.1	-1	1.7	i	2.3	-6	0.68
CC(C)CN(CCCNC(=O)CN1C(=O)CSc2ccc(S(=O)(=O)N3CCOCC3)cc21)CC(C)C	4.4	-6	1.5	.	3.5	3	0.69
COc1ccc(OC)c(N2C(=O)CC(Cc3cc(C)cc(C)c3)C2=O)c1 (stereo unspecified)	0.1	13	-1.8	.	-3.8	3	0.67
CCCc1c(CC)c(=N)c2ccccc2n1C	-38	73	-2.2	i	-3.0	0	0.69
Cc1cc(C)c[n+](-c2[nH]c(=O)sc2/C=N/N=C(\[O-])c2cccnc2)c1	.	-7	-4.9	i	6.1	1	.

Reprinted at random: five records from the list.
SMILES	UCH37 inh	ALR inh	HNF4A DNA FP	FGF22 binding	LANA-H2B inh	B2AR ag	E coli growth
COCCC1CCCCN1C(=O)c1cc(COc2cccc(C(C)=O)c2)on1 (stereo unspecified)	1.0	-5	0.4	i	4.4	-7	0.68
CCOc1ccc(NC(=O)[C@@H](NC(=O)c2ccco2)C(C)C)cc1	4.3	63	3.3	i	5.1	-2	0.68
CCOC(=O)c1ccc(NC(=O)C(C)Sc2nc(O)c(-c3ccccc3)c(=O)[nH]2)cc1 (stereo unspecified)	8.0	99*	-3.0	i	-2.0	-6	0.64
COc1ccc(OC)c(N2C(=O)CC(Cc3cc(C)cc(C)c3)C2=O)c1 (stereo unspecified)	0.1	13	-1.8	.	-3.8	3	0.67
CCN(C(=O)CSc1nc2cc(C(=O)O)ccc2c(=O)n1-c1ccccc1F)C1CCS(=O)(=O)C1 (stereo unspecified)	-0.5	.	-2.3	i	.	-5	0.67

Going on with the list:
SMILES	UCH37 inh	ALR inh	HNF4A DNA FP	FGF22 binding	LANA-H2B inh	B2AR ag	E coli growth
CCc1cc2c(=O)[nH]c(CC(N)=O)nc2s1	-0.2	-22	1.6	i	-1.1	-5	0.69
CC(C)C[C@H](NC(=O)N1c2ccccc2NC(=O)[C@@H]1C(C)C)C(=O)N[C@@H](Cc1ccccc1)C(=O)O	1.5	-7	5.1	i	8.3	0	0.7
N#CCC(=O)Nc1ccc(C(=O)OC(C(=O)Nc2ccc([N+](=O)[O-])cc2Br)c2ccccc2)cc1 (stereo unspecified)	2.7	.	14	i	.	11	0.68
CCN1CCN(c2ccc(S(=O)(=O)N3CCCCC3)cc2NC(=O)c2ccc(C)o2)CC1	2.5	-3	-2.5	.	-3.1	-2	0.66
CCOc1cccc(CN2CCC(n3nccc3NC(=O)CCCc3ccccc3)CC2)c1	0.4	2	3.1	i	-5.8	-4	0.66
Cc1cccc(C)c1NC(=O)Cc1cccs1	1.0	8	-1.5	i	0.1	0	0.69
Fc1cccc(/C=N/Nc2nccnc2Cl)c1	.	13	0.9	i	-0.1	3	.
Cc1ccc2c(c1C)OC(=O)CC2(C)C	-83	-3	3.5	.	8.1	4	0.71
CC(=O)Nc1cccc(NC(=O)C(=O)c2cn(CC(=O)N3CCCCC3)c3ccccc23)c1	7.4	-8	-0.9	i	5.4	1	0.68
Cc1cc2c(cc(C(=O)OC(C(=O)NCc3ccco3)C(C)C)n2C)o1 (stereo unspecified)	3.3	2	-2.7	.	8.6	5	0.68
COc1ccc(C(=O)Nc2ccc(S(=O)(=O)N3CCCC3)cc2)c(OC)c1	0.5	-3	4.7	.	4.2	4	0.67
Cc1nc(SCCC(=O)O)c2ccccc2n1	4.5	0	-0.4	i	-1.4	11	0.65
Cc1[nH]c(=O)[nH]c(=O)c1CSc1nnc(CCCCCNC(=O)OC(C)(C)C)o1	4.0	-10	-0.2	.	-1.7	1	0.74
O=C(CNC(=O)c1ccc(Cl)cc1)N/N=C/c1cccnc1	.	-3	1.3	i	-1.0	1	.
COc1ccccc1-c1cc(C(=O)NCCCN2CCOCC2)no1	-2.6	-1	-0.5	i	5.5	-4	0.69
O=C1C(=O)N(C/C=C/c2ccccc2)c2ccccc21	.	6	-0.9	i	-2.5	15	.
N/C(Cc1cccc2ccccc12)=N\OC(=O)COc1ccccc1	5.9	-15	6.8	.	3.1	5	0.68
CC(=O)Nc1ccc(S(=O)(=O)c2c(N)n(CCN3CCOCC3)c3nc4ccccc4nc23)cc1	-128	-7	5.6	.	0.7	1	0.7
O=C(CSc1ccc(-c2ccc(F)cc2)nn1)N1CCCCC1	2.4	2	3.3	i	-3.1	1	0.72
CC(C)Cc1nc2sc3c(NCc4ccco4)ncnc3c2c2c1COC(C)(C)C2	-21	-2	5.7	.	2.9	65*	0.74
COC(=O)c1ccc(Cl)c(NC(=O)CN2CCOCC2)c1	-1.9	-5	1.4	.	1.9	-5	0.7
CCCc1nnc(SCC(=O)O)n1CC	-0.2	.	3.3	i	-1.9	-1	0.69
COc1ccccc1C=NN=C(NN=Cc1ccccc1OC)NN=Cc1ccccc1OC	6.4	.	2.0	.	.	19	0.71
COC(=O)CCC(=O)OC1(C)C(=O)C=C2C=C(C3CC3)N(Cc3ccc(OC)cc3)C=C2C1=O (stereo unspecified)	-0.4	.	-3.4	i	3.6	8	0.69
CSCC(=O)N1CCCC(CNC(=O)c2ccccc2Cl)C1 (stereo unspecified)	-1.2	-13	0.2	i	-1.1	5	0.7
COC(=O)C1=C(CS(=O)(=O)c2ccc(OC)cc2)NC(=O)NC1c1ccccc1 (stereo unspecified)	0.2	-5	2.1	i	0.9	7	0.64
O=C(Cc1cccs1)Nc1ccc(Cl)cc1	4.6	-9	2.2	.	-7.1	0	0.66

Source: PubChem BioAssay
